Screening results deposited in PubChem by several laboratories.
ALR inh = inhibitors of human sulfhydryl oxidase ALR; purified ALR, DTT oxidation, H2O2 HRP-luminol luminescence; 3.8% of 290,000 active; P55789; inhibition, % (concentration not given with the values);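 active = mean and each replicate at 75% or more; inconclusive = only one of the two met; inactive = neither met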;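 note: stock transfer was 7.5 nL into about 7.5 µL; 0% = neutral wells and 100% = wells with inactivated enzyme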
Target sequence (P55789 whole entry, looked up): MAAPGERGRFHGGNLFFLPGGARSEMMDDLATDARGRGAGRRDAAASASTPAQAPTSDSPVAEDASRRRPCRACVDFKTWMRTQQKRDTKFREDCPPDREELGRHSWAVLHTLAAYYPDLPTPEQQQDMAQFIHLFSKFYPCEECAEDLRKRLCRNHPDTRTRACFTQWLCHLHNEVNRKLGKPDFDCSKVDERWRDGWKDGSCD
rRNA inh HTS = selective bacterial rRNA inhibition in E. coli. E. coli WT GFP vs humanized-ribosome RFP mutants, fluorescence, 24 h; active compounds read low; DMSO median 0, no signal -100. GFP signal change (wild-type ribosome), % (concentration not given with the values). 1.6% of 350,000 active. AID 720706;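 active = significant combined selectivity score with lowered wild-type GFP, culture density cut under 30%, mutant RFP and density less affected; inactive = any of these conditions unmet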; note: one replicate is shown; some compounds called inactive have numbers as strong as hits
Bfl-1 A1 inh = inhibitors of the anti-apoptotic protein A1, read as caspase activation | MEF A1-2A-BIM cells, Caspase-Glo 3/7 luminescence, 3 h; percent of clofoctol response, vehicle zero | caspase activation, % (test concentration not listed) | 0.066% of 330,000 active | AID 2462;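 active = over half of replicate activation scores above 10%, or exactly half above 10 with the replicate mean above 10; inconclusive = replicate mean below 10 yet half the replicates above 10; inactive = over half of replicates below 10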;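 note: wells of about 30 µL received 50 nL stock; many hits fall short of the cut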
LANA-H2B inh = blocks KSHV LANA binding to histone H2A/H2B. Q9QR71. cell-free LANA-H2A/H2B peptide, fluorescence polarization. inhibition, % (test concentration not listed). 0.6% of 320,000 active. AID 2629; in the data active = inhibition mostly above about 10%, no sharp cut-off; inactive = mostly below about 6.7%;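 note: stock transfer was 7.5 nL into about 10 µL; 0% = median of vehicle wells and 100% = median of positive control wells; one replicate is shown; the record names a cut of 25% in any replicate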
B2AR ag = activates human beta-2 adrenergic receptor causing internalization; response, % (no concentration beside the values); P07550; 0.43% of 340,000 active; AID 504454; Am2.2-beta2AR cells, FAP receptor internalization, flow cytometry; reference of the scale not given here;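 active = response above a set limit, near 3 SD of response in nonfluorescent compounds, cut at about 42% in these data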;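 note: stock transfer was 100 nL into about 11 µL; a reference agonist was the positive control; negative values mostly stem from fluorescent compounds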
Target sequence (P07550 whole entry, looked up): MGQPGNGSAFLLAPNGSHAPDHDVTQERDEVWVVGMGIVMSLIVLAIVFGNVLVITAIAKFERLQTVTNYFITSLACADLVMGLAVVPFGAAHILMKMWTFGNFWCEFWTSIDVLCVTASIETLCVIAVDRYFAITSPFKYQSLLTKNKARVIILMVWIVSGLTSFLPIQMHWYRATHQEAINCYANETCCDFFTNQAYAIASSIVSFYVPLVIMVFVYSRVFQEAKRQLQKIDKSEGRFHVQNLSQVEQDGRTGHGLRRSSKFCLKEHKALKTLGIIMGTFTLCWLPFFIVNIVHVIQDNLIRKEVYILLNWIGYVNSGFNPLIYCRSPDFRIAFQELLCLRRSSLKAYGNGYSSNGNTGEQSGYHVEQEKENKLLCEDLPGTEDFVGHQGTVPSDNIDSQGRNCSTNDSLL
Beta cell apopt = beta cell apoptosis inhibition | 0.8% of 300,000 active | protection from apoptosis, % (test concentration not listed) | INS-1E cytokine-induced death, ATP luminescence, 48 h; percent of positive-control rescue, neutral wells zero;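 active = all replicates at 75% or more, or half of them and the mean; inconclusive = half reach 75% but not the mean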;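 note: 0% = cytokine-treated negative control wells and 100% = positive control rescue; higher means more ATP so stronger rescue from cytokine killing; wells of about 40 µL received 100 nL stock; the first replicate is given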
T cruzi repl = blocks replication of Trypanosoma cruzi; 1.4% of 300,000 active; T. cruzi beta-gal in NIH3T3, luminescence, 90 h; inhibition, % (test concentration not listed); AID 1885;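 active = mean inhibition across valid replicates above about 55%, limit read from the data; inconclusive = mean below that limit but half or more replicates reach it; inactive = mean below it, under half of replicates reach it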;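 note: signal also drops with host cell toxicity which is not excluded here; 0% = plate median of DMSO wells and 100% = zero luminescence signal; higher percent means less beta-gal luminescence so fewer parasites; stock transfer was 50 nL into about 50 µL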
Calb FLC = affects C. albicans growth with fluconazole; C. albicans CaCi-2 (fluconazole-resistant clinical isolate) + fluconazole, Alamar Blue growth, 48 h; growth inhibition, % (concentration not given with the values); 0.57% of 300,000 active; AID 1979;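 active = most replicates above 75%; inconclusive = exactly half above 75%; inactive = most below 75%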;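 note: all wells also contain fluconazole at 8 µg/ml as a sub-toxic cotreatment; 0% = median of DMSO wells and 100% = median of geldanamycin control wells; wells of about 8 µL received 7.5 nL stock; the first replicate is given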
rRNA inh HTS OD600 = second read-out of rRNA inh HTS, no call of its own (marks repeat the call); OD600 change, %; measured here: OD600 growth;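 optical density of the mix in the first replicate; 0 = DMSO median and -100 = no signal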
rRNA inh HTS RFP = further read-out of rRNA inh HTS, marked with its call; RFP signal change, %; measured here: RFP humanized mutant strains;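 first replicate; 0 = DMSO median and -100 = no signal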
Starred values were filed as active, the others as inactive; ? = inconclusive; / = no result given.

SMILES	ALR inh	rRNA inh HTS	rRNA inh HTS OD600	rRNA inh HTS RFP	Bfl-1 A1 inh	LANA-H2B inh	B2AR ag	Beta cell apopt	T cruzi repl	Calb FLC
COc1ccc(N2CCN(C(=O)C3CCN(S(=O)(=O)c4ccccc4)CC3)CC2)cc1	44	-9	-12	7.1	-0.4	-3.5	-2	0	-27	-43
Cc1ccnc(N2CCCC(C(=O)Nc3cc(F)ccc3C)C2)n1 (stereo unspecified)	87*	/	/	/	-0.3	2.0	0	1	9	15
O=C(CCC(=O)N1CCCC1)Nc1nnc(C2CCCCC2)s1	-5	/	/	/	-1.0	2.3	-2	-5	-10	-1
CCN(CC(=O)NC(C)C)C(=O)c1ccc(S(=O)(=O)N(C)c2ccccc2OC)cc1	-4	/	/	/	-0.2	3.7	-10	-5	-4	4
COc1ccccc1NC(=O)c1sc2ncn(CC(=O)N3CCC(C)CC3)c(=O)c2c1C	-3	0	8	-3.5	1.5	2.2	-10	2	-32	-6
O=C(CSc1nnc(Cn2c(=O)sc3ccccc32)n1CCc1ccccc1)N1CCCC1	-16	2	1	1.0	-1.1	-1.9	-6	-7	4	10
CC(C)(C)c1ccc(C(=O)N2CCC(C(=O)NC3CCCCCC3)CC2)cc1	/	7	7	1.6	0.3	-2.9	2	10	-3	3
O=C(C1CCN(S(=O)(=O)c2ccc(Br)cc2)CC1)N1CCOCC1	1	9	6	1.4	0.0	-6.4	-6	0	-2	-10
Cn1ncc([N+](=O)[O-])c1C(=O)N1CCOCC1	-9	/	/	/	0.1	2.0	0	5	4	-18
c1ccc([C@H]2CNCCN2CCc2cccc3ccccc23)cc1	-10	-16	-19	1.0	1.0	9.1	25	-3	/	/
CC(C)(C)S(=O)(=O)c1cnc(-c2cnccn2)nc1N	-2	16	11	0.7	0.1	0.6	3	1	-12	-1
CN(Cc1nc(-c2ccccn2)no1)S(=O)(=O)c1ccccc1	-4	/	/	/	-0.1	-4.4	21	/	/	/
COC(=O)c1ccc(NC(=O)c2ccccc2CC[N+](=O)[O-])cc1	-4	-13	-9	-1.4	0.3	-0.9	1	0	15	0
CCCCOc1ccc(/C=C/C(=O)OCC(=O)NC2CCS(=O)(=O)C2)cc1OCC (stereo unspecified)	25	-7	-1	-3.9	0.4	-6.4	2	-3	-9	8
O=[N+]([O-])c1cccc(C(=S)N2CCCC2)c1	1	2	9	8.5	2.1	-0.8	3	-2	-5	-3
Cc1c(C(=O)N(C)Cc2nc3ccccc3c(=O)[nH]2)oc2ccccc12	-2	2	-6	2.9	-0.1	6.0	-7	-2	/	/
Cc1ccc(S(=O)(=O)Nc2cc(C)cn(Cc3ccccc3)c2=O)cc1	-88	-66	-81	-18	-0.5	3.6	9	9	-1	-1
O=C(NNC1CC(=O)N(c2ccc(Br)cc2)C1=O)c1ccccn1 (stereo unspecified)	-2	16	16	1.0	-0.2	-1.1	-3	-2	-4	-3
COC(=O)c1c(C(=O)OC)c(-c2ccccc2)n2c1CS(=O)(=O)C2	-2	/	/	/	0.2	2.1	0	0	/	-7
CC(C)C(OC(=O)CN1C(=O)COc2ccccc21)C(=O)NC1CCCCC1 (stereo unspecified)	-6	-14	-24	5.2	0.5	-1.8	1	0	-5	-16
CCCOC(=O)C(=O)NNc1ccccc1	100*	-6	-3	-1.9	-0.1	1.6	1	-1	49	-3
CSCCC(NS(=O)(=O)c1ccccc1F)C(=O)NC(C)c1ccccc1 (stereo unspecified)	/	-9	1	2.0	1.0	3.2	6	-3	-4	0
COc1cccc(NS(=O)(=O)c2ccc(OC)c(OC)c2)c1	-5	/	/	/	-3.4	-1.1	4	-1	-12	6
COc1cccc(OC)c1C(=O)Nc1cccc(-c2ccc3nncn3n2)c1	-21	-1	1	-4.3	-0.7	-1.0	-241	-5	2	-5
Cc1c(NC(=O)c2cnn3c(C(F)(F)F)cc(-c4ccco4)nc23)c(=O)n(-c2ccccc2)n1C	-7	/	/	/	0.9	0.0	2	-1	-1	-1
O=C(CSc1ncn[nH]1)Nc1ccc(Cl)c(Cl)c1	26	/	/	/	-1.6	-3.4	1	-7	-11	10
Cc1cc(Cl)nc(Cl)c1C(=O)N1CCOCC1	-3	2	8	-0.6	-0.3	-1.9	2	0	-9	19
CCN(C(=O)COc1ccc(C)nc1[N+](=O)[O-])C1CCS(=O)(=O)C1 (stereo unspecified)	-2	/	/	/	-0.7	2.4	-3	1	-8	7
COc1cc(C(=O)NC(C)CCc2ccccc2)cc(OC)c1OC (stereo unspecified)	-10	16	10	2.9	0.5	1.6	2	0	-4	4
CC(Oc1ccc2ccc(=O)oc2c1)C(=O)NC(Cc1c[nH]c2ccc(O)cc12)C(=O)O (stereo unspecified)	/	/	/	/	-0.1	1.6	0	0	-7	-3
Cc1cc(Oc2ccccc2)nc(-c2ccccc2)n1	0	/	/	/	0.5	3.0	-20	-7	-3	-5
NS(=O)(=O)c1ccc(NCc2ccccc2OCc2ccccc2F)cc1	1	-13	8	1.9	-0.4	12	4	-4	-6	28
CCOc1cc(S(=O)(=O)N2CCN=C2Cc2ccccc2)ccc1F	-20	3	3	3.9	0.3	-4.5	2	-2	-2	-1
Cc1ccccc1C(=O)N1CCN(c2ccc([N+](=O)[O-])c(NCc3cccnc3)c2)CC1	-5	/	/	/	0.2	-0.1	0	/	9	-8
O=C(COc1coc(CN2CCN(c3ccccc3F)CC2)cc1=O)NC1CCCCC1	0	-2	10	-0.3	-0.2	0.7	-2	/	6	6
CC(NC(=O)CNC(=O)c1cccs1)c1cccc(C(F)(F)F)c1 (stereo unspecified)	/	2	-2	0.9	1.0	1.3	5	2	/	/
CSc1ncc(CN2CCCC(C(=O)Nc3ccc(-c4ccco4)cc3)C2)cn1 (stereo unspecified)	4	0	7	9.4	0.1	-3.6	14	0	-9	-12
S=c1[nH]nc(COc2ccccc2)n1-c1ccccc1	32	3	-4	0.2	0.5	-1.6	-4	-5	-2	50
COc1ccc2oc(C(=O)NN3C(C)CCCC3C)c(C)c2c1 (stereo unspecified)	48	11	-3	0.5	0.5	0.4	0	-19	10	26
O=C(c1ccc2c3c(cccc13)CC2)C1CCCN(C(=O)c2ccc(=O)[nH]c2)C1 (stereo unspecified)	-7	-11	-28	-7.5	0.9	3.0	12	-2	-10	12

Record cards (already shown). Values in the order: ALR inh, rRNA inh HTS, rRNA inh HTS OD600, rRNA inh HTS RFP, Bfl-1 A1 inh, LANA-H2B inh, B2AR ag, Beta cell apopt, T cruzi repl, Calb FLC
CC(Oc1ccc2ccc(=O)oc2c1)C(=O)NC(Cc1c[nH]c2ccc(O)cc12)C(=O)O (stereo unspecified) as listed: /, /, /, /, -0.1, 1.6, 0, 0, -7, -3
O=C(CSc1ncn[nH]1)Nc1ccc(Cl)c(Cl)c1 as listed: 26, /, /, /, -1.6, -3.4, 1, -7, -11, 10

3 of the entries above in order of their number in ALR inh, highest first:
SMILES	ALR inh	rRNA inh HTS	rRNA inh HTS OD600	rRNA inh HTS RFP	LANA-H2B inh	B2AR ag
COc1ccc2oc(C(=O)NN3C(C)CCCC3C)c(C)c2c1 (stereo unspecified)	48	11	-3	0.5	0.4	0
CSc1ncc(CN2CCCC(C(=O)Nc3ccc(-c4ccco4)cc3)C2)cn1 (stereo unspecified)	4	0	7	9.4	-3.6	14
O=C(COc1coc(CN2CCN(c3ccccc3F)CC2)cc1=O)NC1CCCCC1	0	-2	10	-0.3	0.7	-2

The listing continues.
SMILES	ALR inh	rRNA inh HTS	rRNA inh HTS OD600	rRNA inh HTS RFP	Bfl-1 A1 inh	LANA-H2B inh	B2AR ag	Beta cell apopt	T cruzi repl	Calb FLC
CC(=O)c1ccc(N2CCN(C(=S)NCc3ccco3)CC2)cc1	-15	-9	-13	-7.1	-0.8	-4.5	-4	2	4	-11
COc1ccc(NS(=O)(=O)c2ccc3c(c2)N(C(C)=O)CCO3)cc1	-3	2	4	-2.7	-1.6	-0.1	0	-1	-10	2
Cc1cc(C(F)(F)F)nc(SCC(=O)Nc2cc(C)on2)n1	-5	/	/	/	0.5	6.0	-8	-3	-3	-12
CC1CCN(C(C(=O)NC2CCCCC2)c2cc3c(cc2[N+](=O)[O-])OCO3)CC1 (stereo unspecified)	-5	11	12	0.5	0.7	6.3	0	9	-2	-4
COc1ccc(C(=O)OCC(=O)Nc2sccc2C(N)=O)cc1OC	/	-17	-11	-5.1	-0.6	5.4	7	1	-8	1
CCSc1nc(=S)n(CC)c(C)c1C(C)=O	-7	/	/	/	1.2	-11	-6	-10	-4	11
CN1CCN(C(=O)CCCN2C(=O)/C(=C/c3cccc(Br)c3)SC2=S)CC1	/	-7	8	18	/	/	-4	/	66*	-1
CCOC1(c2ccccc2)CC1C(=O)N/N=C/c1cccc([N+](=O)[O-])c1 (stereo unspecified)	-4	10	5	-1.8	-1.1	-1.3	0	7	/	-10
CCCCCOC(=O)C1=C(C)N(C)C(=O)NC1c1cc(Br)c(O)c(OC)c1 (stereo unspecified)	17	/	/	/	0.2	-1.4	6	0	2	-5
Cc1cc(-n2c(C)cc(C(=O)CSc3nnc4sc5ccccc5n34)c2C)no1	-13	/	/	/	-0.1	-1.6	-19	-1	6	-13
CN1C(=O)SC(Nc2ccccc2C(=O)O)C1=O (stereo unspecified)	39	/	/	/	0.5	-0.9	-1	-6	-14	-4
CCn1nnc(NC(=O)Cc2ccc(Cl)cc2)n1	-1	6	5	1.1	?	1.9	-6	-2	-10	5

Three entries already listed, ordered by length of the SMILES, low to high:
SMILES	ALR inh	rRNA inh HTS	rRNA inh HTS OD600	rRNA inh HTS RFP	Bfl-1 A1 inh	LANA-H2B inh	B2AR ag	Beta cell apopt	T cruzi repl	Calb FLC
COc1cc(C(=O)NC(C)CCc2ccccc2)cc(OC)c1OC (stereo unspecified)	-10	16	10	2.9	0.5	1.6	2	0	-4	4
O=C(COc1coc(CN2CCN(c3ccccc3F)CC2)cc1=O)NC1CCCCC1	0	-2	10	-0.3	-0.2	0.7	-2	/	6	6
CC1CCN(C(C(=O)NC2CCCCC2)c2cc3c(cc2[N+](=O)[O-])OCO3)CC1 (stereo unspecified)	-5	11	12	0.5	0.7	6.3	0	9	-2	-4

Only part of the results is shown; rates above refer to the full screens.
